From PubChem BioAssay
Cruzain inh noDet: cruzain (T. cruzi) inhibition without detergent | Potency, µM, inactives show max response, negative = inhibition, actives largely listed as inhibitors | P25779 | hit rate 2.3% among 200,000 | AID 1476 | purified cruzain, Z-FR-AMC fluorescence, no detergent; active means well fitted curve in the direction sought with a large enough effect; inconclusive means small, poorly fitted or top-dose-only effect, or another doubt; inactive means no such curve, though single readings can be large; an effect the other way counts as inactive or inconclusive;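 further: plate controls were enzyme without inhibitor for no effect and buffer without enzyme for full effect; nearly all actives have a fitted effect of over 40% in size; top concentration of the series not given in the record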
Target sequence (P25779 123-467 limits assumed): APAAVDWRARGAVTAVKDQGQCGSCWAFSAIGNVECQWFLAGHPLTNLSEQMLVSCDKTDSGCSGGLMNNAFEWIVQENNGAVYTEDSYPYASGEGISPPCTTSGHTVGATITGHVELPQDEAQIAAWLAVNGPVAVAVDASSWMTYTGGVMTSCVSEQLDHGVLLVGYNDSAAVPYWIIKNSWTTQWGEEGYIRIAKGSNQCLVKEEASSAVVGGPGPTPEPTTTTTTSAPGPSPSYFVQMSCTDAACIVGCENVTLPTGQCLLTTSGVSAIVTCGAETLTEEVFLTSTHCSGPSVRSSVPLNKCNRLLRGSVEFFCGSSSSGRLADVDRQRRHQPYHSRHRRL
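Detergent-free condition (0.00005% Triton X-100) in acetate buffer pH 5.5 with DTT. 1.5 nM enzyme and compound were pre-mixed 15 min, then 2 uM Z-FR-AMC substrate added; reaction progress from fluorescence change between first and third reads (60 s).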
NS1 function inh: blocks influenza NS1 protein function | Potency, µM (top dose mostly 46.1 µM), for the others: at the top dose activity, positive = more growth | S. cerevisiae slowed by influenza A NS1, growth recovery by OD600 | hit rate 0.4% among 270,000; further: actives are rising curves; nearly all actives have a fitted effect of over 50% in size
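S. cerevisiae expressing influenza A NS1, grown in glucose, washed, then diluted 1:100 into pH 6.0 -URA galactose medium with 23 nl compound. Growth recovery read as OD600; NS1-free strain serves as control.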
SARS PLP yeast: blocks SARS-CoV papain-like protease in a yeast assay. Potency, µM (top dose mostly 32.9 µM), for inactives: at the top dose activity, positive = growth rescue. S. cerevisiae expressing SARS-CoV PLpro, growth rescue; control for the full effect not named in the record. hit rate 0.19% among 330,000; further: 0% is about no effect; nearly all actives have a fitted effect of over 55% in size; growth read by luminescence after 48 h
Marburg entry inh: Marburg virus entry inhibition; AID 540276; Potency, µM (highest dose often 37.8 µM), inactives show at the top dose activity change, negative = inhibition, most hits filed as inhibitors; hit rate 1.8% among 300,000; Marburg virus pseudotyped entry inhibition, cell reporter; control for the full effect not named in the record; about a third of the inactives were read at about 46 µM; active = well fitted inhibition curve with a large enough effect; inconclusive = small, poorly fitted or top-dose-only effect, or effect the other way; inactive = flat fitted curve, though single readings scatter; tested in HEK293 cells; about a fifth of its hits are not listed in these tables; further: on the % scale 0 is the no-effect control and ±100 the full control effect; luciferase read-out
Cruzain Triton: inhibitors of Trypanosoma cruzi cruzain with detergent; P25779; purified cruzain, Z-FR-AMC fluorescence, 0.01% Triton; Potency, µM, inactives show max response, negative = inhibition, hits mostly inhibitors; hit rate 0.43% among 200,000; AID 1478; active means well fitted curve in the direction sought with a large enough effect; inconclusive means small, poorly fitted or top-dose-only effect, or another doubt; inactive means no such curve, though single readings can be large; an effect the other way counts as inactive or inconclusive;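 further: plate controls were neutral wells for no effect and buffer without enzyme for full effect; nearly all actives have a fitted effect of over 40% in size; top concentration of the series not given in the record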
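15 min RT preincubation of 1.5 nM cruzain with compound, then 2 uM Z-FR-AMC added; kinetic AMC fluorescence, 60 s delta. Triton X-100 0.01%, pH 5.5.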
StopGo reporter: lowers the luciferase signal of an FMDV 2A StopGo reporter. human cells with a luciferase reporter of 2A StopGo recoding; control for the full effect not named in the record. Potency, µM (series often up to 57.9 µM), for inactives: at the highest dose signal change, negative = less light. hit rate 1.2% among 410,000; active = well fitted falling curve with a large enough effect; inconclusive = small, poorly fitted or top-dose-only effect; inactive = no such curve, though single readings can be large or run the other way; tested in HEK293T cells; further: on the % scale 0 is the no-effect control and ±100 the full control effect; nearly all actives have a fitted effect of over 45% in size; luciferase light after 4 h
LASV entry inh: inhibitors of Lassa virus binding or cell entry; Lassa virus pseudotype entry inhibition, cell reporter; control for the full effect not named in the record; Potency, µM (titrated, usually from 37.9 µM), without a hit: at the top dose activity change, negative = inhibition, hits mostly inhibitors; hit rate 1.2% among 300,000; active means well fitted inhibition curve with a large enough effect; inconclusive means small, poorly fitted or top-dose-only effect, or effect the other way; inactive means flat fitted curve, though single readings scatter; tested in HEK293 cells; further: on the % scale 0 is the no-effect control and ±100 the full control effect; nearly all actives have a fitted effect of over 50% in size; luciferase read-out
RE007 growth inh: less growth of the S. pombe RE007 Vpr strain; hit rate 0.21% among 360,000; S. pombe RE007 Vpr strain, BacTiter-Glo ATP luminescence, 24 h; control for the full effect not named in the record; AID 651644; Potency, µM (highest dose often 92.2 µM), without a hit: at the highest dose activity change, negative = less growth; active = well fitted falling curve with a large enough effect; inconclusive = small, poorly fitted or top-dose-only effect; inactive = no such curve, though single readings can be large or run the other way;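 further: on the % scale 0 is the no-effect control and ±100 the full control effect; nearly all actives have a fitted effect of over 50% in size; the assay follows cell death caused by Vpr and the record does not say whether a fall means rescue or toxicity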
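Fission yeast strain RE007, carrying one chromosomally integrated HIV-1 vpr copy, was seeded at OD 0.01 in PMG+AL medium with 23 nL pinned compound. After 24 h at 30 °C and 99% humidity, viability was read by BacTiter-Glo luminescence.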
* hit, by the source's call; ? = inconclusive; nt = not tested or not shown; & = joins results of further samples; [ ] = remark or other dose. Unless noted, the call rests on the fitted dose curve; in most records, active means well fitted rising curve with a large enough effect; inconclusive means small, poorly fitted or top-dose-only effect; inactive means no such curve, though single readings can be large or run the other way. Potency means the concentration at half of the fitted maximal effect.

Molecule,Cruzain inh noDet,NS1 function inh,SARS PLP yeast,Marburg entry inh,Cruzain Triton,StopGo reporter,LASV entry inh,RE007 growth inh
CCCCN(CC(O)COc1cccc(C)c1)CC(O)COc1cccc(C)c1 (stereo not given),nt,-4%,0%,?,nt,?,?,-6%
CCCCOC(=O)C1C2C=CC3(CN(CCc4ccccc4)C(=O)C13)O2 (stereo not given),-16%,-4%,-31%,nt,-16%,-3%,nt,7%
CCOc1ccc(CNC(=O)C2CCCN(S(=O)(=O)N(CC)c3ccc(OCC)cc3)C2)cc1 (stereo not given),3%,nt,nt,nt,3.5%,-9%,?,nt
C/C(=N\OCC(=O)NCC(F)(F)F)c1cc2ccccc2o1,5%,1%,26%,?,-1.2%,48%[activator],?,-23%
O=C(O)CC1SC(N/N=C/c2ccc(Br)cc2)NC1=O (stereo not given),nt,nt,-1%,10%,nt,-7%,7%,-6%
CC(C)CNC(C)C(=O)Nc1ccc(S(N)(=O)=O)cc1 (stereo not given),nt,nt,0%,?,nt,-12%,-13%,30%
COc1ccc(-c2csc(NC(=O)c3ccccc3S(C)(=O)=O)n2)cc1,nt,nt,1%,?,nt,25µM*,?,2%
COc1ccc(OC)c(NC(=O)CSc2nnc(-c3ccco3)n2-c2ccc(C(=O)O)cc2)c1,-20%,16%,-3%,2%[46.1 µM],6.5%,-11%,0%,-7%
Cn1c(C(=O)O)c(CC(=O)NCC2COc3ccccc3O2)c2ccccc21 (stereo not given),6%,14%,-1%,12%,-4.0%,0%,10%,6%
O=C(CSc1ccc2c(c1)OCCO2)NCCc1ccc(Cl)cc1Cl,5%,4%,-22%,-24%,-8.9%,0%,-2%,1%
Cc1c(Cl)cccc1NC(=O)c1ccco1,nt,5%,0%,-1%,nt,27%,?,-15%
Cc1ccc(NC(=O)CSc2cn(CC(=O)N3CCCCCC3)c3ccccc23)cc1,-12%,nt,nt,nt,0.1%,-1%,6%[46.1 µM],nt

Single entries from the results shown:
SARS PLP yeast with `CC(C)CNC(C)C(=O)Nc1ccc(S(N)(=O)=O)cc1` (stereo not given) : 0%
StopGo reporter with `Cc1ccc(NC(=O)CSc2cn(CC(=O)N3CCCCCC3)c3ccccc23)cc1` : -1%
SARS PLP yeast with `COc1ccc(-c2csc(NC(=O)c3ccccc3S(C)(=O)=O)n2)cc1` : 1%

(more compounds)
Molecule,Cruzain inh noDet,NS1 function inh,SARS PLP yeast,Marburg entry inh,Cruzain Triton,StopGo reporter,LASV entry inh,RE007 growth inh
C=CCNC(=S)N1CCN(c2cccc(C(F)(F)F)c2)CC1,5%,-19%,-75%,?,-3.6%,0%,-30%,-15%
NC(=O)c1ccccc1NC(=O)/C=C/C(=O)O,2%,-7%,1%,10%[46.1 µM],6.0%,15%,-4%,8%
O=C1c2[nH]nc(-c3ccccc3O)c2C(c2ccc(F)cc2)N1CC1CCCO1 (stereo not given),2%,-47%,1%,?,-7.1%,-8%,?,30%
C/C(=N\NC(=O)Cc1ccccc1)c1cccnc1,nt,12%,28%,nt,nt,-12%,nt,14%
O=C(Cc1ccc(S(=O)(=O)N2CCCCC2)s1)Nc1cccc2ccccc12,-12%,10%,-15%,-2%,-6.4%,5%,9%,4%
COc1ccccc1-c1csc(Cc2nnc3n2CCCCC3)n1,12%,5%,0%,-5%,3.4%,-14%,-1%,4%
COCCNC(=O)C(c1ccc(F)cc1)N(Cc1ccccc1)C(=O)CCC(=O)Nc1ccccn1 (stereo not given),nt,-12%,0%,8%[46.1 µM],nt,-6%,nt,20%
O=C(Nc1c(Cl)cccc1Cl)c1cc(=O)n(Cc2ccccc2)c(=O)[nH]1,?,3%,-2%,11%,2.2%,10%,18%,-6%
OCCCNCc1cccc2ccccc12,-7%,6%,2%,?,-1.3%,0%,-2%,-21%
O=C1NC(=O)C2(CCCCCC2)N1,nt,nt,nt,0%[46.1 µM],nt,17%,1%[46.1 µM],10%
O=C(CCn1c(=O)c2ccccc2n(CC(=O)NC2CCCC2)c1=O)NCCc1ccc(Cl)cc1,?,-4%,-2%,?,6.9%,18%,?,-1%
O=C(c1ccc(C(=O)N2CCCc3ccccc32)s1)N1CCCc2ccccc21,-11%,-105%,-22%,?,-7.3%,?,-13%,-9%

Arranged by formula weight (descending): part of the list above
Molecule,Cruzain inh noDet,NS1 function inh,SARS PLP yeast,Marburg entry inh,Cruzain Triton,StopGo reporter,LASV entry inh,RE007 growth inh
COc1ccccc1-c1csc(Cc2nnc3n2CCCCC3)n1,12%,5%,0%,-5%,3.4%,-14%,-1%,4%
C=CCNC(=S)N1CCN(c2cccc(C(F)(F)F)c2)CC1,5%,-19%,-75%,?,-3.6%,0%,-30%,-15%
OCCCNCc1cccc2ccccc12,-7%,6%,2%,?,-1.3%,0%,-2%,-21%
O=C1NC(=O)C2(CCCCCC2)N1,nt,nt,nt,0%[46.1 µM],nt,17%,1%[46.1 µM],10%

Next section
Molecule,Cruzain inh noDet,NS1 function inh,SARS PLP yeast,Marburg entry inh,Cruzain Triton,StopGo reporter,LASV entry inh,RE007 growth inh
COc1ccc(CN(C(=O)c2cc(=O)c3cc(C)cc(C)c3o2)C2CCS(=O)(=O)C2)cc1 (stereo not given),nt,-6%,-1%,nt,nt,4%,nt,-7%
CCc1[nH]nc(C(=O)N2CCCC(CO)(Cc3ccc(F)cc3F)C2)c1C (stereo not given),nt,-8%,-1%,nt,nt,?,nt,8%
Cc1ccccc1-c1ccc(C(=O)NCc2ccccc2)o1,8%,-54%,-28%,11%,-2.4%,50%[activator],?,-5%
O=C(O)c1cc(N=Cc2c(O)c3ccccc3oc2=O)ccc1O,nt,-1%,0%,nt,nt,-24%,nt,-12%
COc1ccccc1N(C)S(=O)(=O)c1ccc(C(=O)Nc2ccc(C)cc2C)cc1,nt,nt,-3%,-12%,nt,?,?,-3%
Cc1cccc(-c2nc(CS(=O)CC(=O)NCC3CCCO3)c(C)o2)c1 (stereo not given),-6%,?,?,?,-2.2%,-17%,7%,-3%
Cc1cccc(NS(=O)(=O)c2ccc3c(c2)OCCO3)c1,-3%,-1%,-4%,-35%,4.0%,nt,22%,8%
Cc1ccc(-c2nc3ccc(Cl)cc3c(=O)n2O)cc1,nt,-94%,-10%,16%[46.1 µM],nt,-6%,24%,?
C=CCn1c2ccccc2c2nnc(SCC(N)=O)nc21,nt,0%,1%,15%[46.1 µM],nt,1%,21%[46.1 µM],0%
C(=N\n1cnnc1)/c1ccc2c(c1)OCCO2,4%,-4%,1%,1%,-5.9%,25%,12%,7%
COC(=O)c1cc(S(=O)(=O)NC2CCCCC2)cn1C,nt,14%,-2%,nt,nt,52%[activator],nt,3%
OCC[N+]12CCC(CC1)C(C(O)(c1ccccc1)c1ccccc1)C2 (stereo not given),nt,2%,1%,-22%,nt,-10%,28%,6%
CC(=O)c1cccc(NC(=O)CCS(=O)(=O)c2cccc3nonc23)c1,2%,1%,0%,-1%[46.1 µM],-0.5%,24%,?,-15%
CS(=O)(=O)c1ccc(Cl)c(NC(=O)c2cccc(N3C(=O)CCC3=O)c2)c1,nt,nt,-9%,36%,nt,-6%,14%,-15%
OCCOCCNc1ncnc2nc[nH]c12,2%,?,5%,nt,2.5%,0%,nt,4%
COc1ccc(/C=C2\CCCCC2=O)cc1,nt,nt,nt,-4%[46.1 µM],nt,11%,?,0%
O=C(Nc1ccc(F)cc1)Nc1nnc(SCC(=O)N2CCCCC2)s1,-5%,nt,nt,nt,-2.4%,-17%,20%[46.1 µM],nt
CCn1cc(C(=O)NCc2ccc(Cl)cc2)c(=O)c2cc(S(=O)(=O)N3CCc4ccccc4C3)ccc21,1%,nt,nt,?,-1.0%,-18%,-8%[46.1 µM],nt
CN(Cc1ccncc1)C1CC(=O)N(c2ccc(Cl)cc2)C1=O (stereo not given),-3%,0%,-12%,15%,-0.2%,0%,19%,50µM*
N#Cc1ccsc1NC(=O)COC(=O)CCS(=O)(=O)c1ccccc1,nt,nt,6%,7%[46.1 µM],nt,0%,17%[46.1 µM],-2%
O=C1c2ccccc2S(=O)(=O)N1Cc1cc(=O)n2ccsc2n1,-4%,0%,?,27%,0.4%,12%,-6%,25%
CN(C)Cc1c(C(=O)N/N=C/c2ccco2)nnn1-c1nonc1N,nt,1%,14%,18%[46.1 µM],nt,-3%,4%,-11%
COC(=O)c1ccc(CNC(=O)COC(=O)c2cccs2)cc1,nt,nt,-2%,23%,nt,5%,-1%[46.1 µM],7%
CCC(=O)N1CCN(c2ccc(NC(=O)COc3ccccc3[N+](=O)[O-])cc2)CC1,nt,6%,-1%,nt,nt,28µM*,nt,-2%
O=C1CC(/C=C/c2ccccc2)(C(=O)NC2CCCC2)N1c1ccc(S(=O)(=O)N2CCCC2)cc1 (stereo not given),?,24%,8%,?,3.5%,-12%,-25%,13%
O=S(=O)(c1ccc(OC(F)(F)F)cc1)N1CCCC(c2ccccc2)C1 (stereo not given),nt,0%,-2%,nt,nt,-16%,nt,-6%
CC(C)CC(=O)N1CCN(c2ccc([N+](=O)[O-])cc2Cl)CC1,8%,-20%,-35%,?,-3.9%,?,-3%,-14%
COC(=O)C1=C(C)N(Cc2ccccc2)C(=NCCc2cccnc2)N[C@H]1c1ccc(Br)cc1,nt,-23%,0%&-7%,nt,nt,?,nt,2%
COc1ccc(Br)cc1-c1noc(-c2ccccc2F)n1,-11%,7%,26%,12%,-4.4%,-2%,14%,7%
COC(=O)c1ccc(CSc2nc3c(c(=O)[nH]2)CCC3)cc1,-9%,nt,nt,5%[46.1 µM],-5.3%,0%&-15%,-3%[46.1 µM],6%
O=C(NCc1ccco1)c1ccc(N2CCCCC2)c([N+](=O)[O-])c1,-5%,-11%,-36%,16%,-7.0%,43%[activator],21µM*,5%
